High-throughput results from PubChem BioAssay.
ugtP null kill = growth inhibition of S. aureus ugtP deletion strain. S. aureus RN4220 ugtP deletion, OD600 growth, 16 h; some inactives read as strong as hits. AID 1259309. 330,000 tested, 0.54% active. growth inhibition, % (no concentration beside the values);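 active = z-score under -3 and OD600 up to 0.15 on both plates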;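 also: plate controls were untreated wells for no effect and antibiotic for full effect; wells of about 80 µL received 100 nL stock; the first replicate is given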
Sa RN4220 lethal = kills Staphylococcus aureus RN4220 | 330,000 tested, 0.33% active | S. aureus RN4220 growth, OD600, 16 h | inhibition, % (concentration not given with the values);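 active = z-score of -3 or lower and OD600 up to 0.18 on both plates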;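 also: plate controls were untreated cells for no effect and reference antibiotic for full effect; stock transfer was 100 nL into about 80 µL; one replicate is shown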
Mtb hypoxia inh = reduces hypoxia-regulated biosensor signal in M. tuberculosis | M. tuberculosis hypoxia-regulated fluorescent reporter, fluorescence | fluorescence inhibition, % (concentration not given with the values) | 300,000 tested, 0.1% active | AID 1159583;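 active = 35 to 45% if threefold the growth effect, above 45% if 1.5-fold the growth effect; inactive = the rest, general growth blockers included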;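 also: wells of about 50 µL received 100 nL stock; 0% = vehicle wells and 100% = reference inhibitor wells; whole bacteria with a GFP reporter of the hypoxia response; strong numbers were not always called active; many hits fall short of the cut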
BJeLR viability = kills HRASV12-expressing BJeLR cells; BJeLR (HRASV12) viability, CellTiter-Glo ATP luminescence, 48 h; reference of the scale not given here; inhibition, % (test concentration not listed); 300,000 tested, 0.17% active; AID 1554;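 active = replicate mean above 50%; inconclusive = above 50% but judged a plate artefact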;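 also: 50 nL library stock added to about 25 µL; numbers are from one replicate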
Autofluor counter = compound fluorescence in toxin protease inhibitor counterscreen | fluorescence intensity (no concentration beside the values) | compound autofluorescence counterscreen, microsphere flow cytometry; hits give high values | 360,000 tested, 3.1% active;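 active = at least 3 SD above the mean of all compounds, about 16000 in these data; inconclusive = too few beads counted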;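 also: 100 nL of 1 mM stock went into each well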
PrP UTR inh = inhibition of PrP 5' UTR reporter expression; 340,000 tested, 0.35% active; cell-based PrP 5' UTR mRNA reporter, plate reader; inhibition, % (test concentration not listed);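 active = every replicate at 50% or more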;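 also: 0 = median of the neutral control wells; tested in H4 reporter cells; numbers are from one replicate; inactives centre near -14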
Mtb hypoxia inh growth = further read-out of Mtb hypoxia inh, marked with its call; growth inhibition, %; measured here: M. tuberculosis growth (absorbance);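 0% = vehicle and 100% = reference antibiotic; read after six days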
Active calls of the source: *; ? = inconclusive; / = no result given. Hits appear at their usual frequency; about 4% have a hit in one of these screens.

Under each structure – Mtb hypoxia inh growth | Autofluor counter | ugtP null kill | BJeLR viability | PrP UTR inh | Mtb hypoxia inh | Sa RN4220 lethal
Cc1cc(C(=O)Nc2cccc(-c3ccc(N4CCOCC4)nn3)c2)ccc1[N+](=O)[O-]
    -4 | 4722 | 10 | -9 | -66 | 5 | -0.8
Cc1cc(C(=O)NNC(=S)NCC(C)C)no1
    14 | 10517 | -3 | -2 | -19 | 8 | 0.3
CC(=O)Nc1c(Cl)cc([N+](=O)[O-])c2ccccc12
    0 | 2254 | 10 | 22 | -8 | 0 | 6.0
CN(C)c1ccnc(Nc2ccc(O)cc2)c1C#N
    9 | 4610 | 4 | 13 | -11 | 9 | 4.3
O=C(CN1CCN(S(=O)(=O)c2ccc(F)cc2)CC1)NC1CCCC1
    -8 | 5553 | 11 | 4 | -8 | 2 | 6.4
COc1ccc(C(=O)NCC(=O)N/N=C(\C)c2ccco2)cc1OC
    / | 4555 | / | -8 | 10 | / | /
CCOc1ccc(NC(=O)CN(C)C(=O)c2ccc(C3SCCS3)cc2)cc1OCC
    / | ? | / | -21 | -6 | / | /
C#CCN1C(=O)S/C(=C\c2cc3c(cc2OC)OCO3)C1=O
    -4 | 4454 | 10 | -1 | -33 | 11 | 4.9
CCSc1nc2ccccc2c(=O)n1Cc1ccc(F)cc1
    2 | 4236 | -2 | 13 | -23 | 3 | 28
Cc1ccc(/C=N/NC(=O)c2c(C)nc3ccc(Br)cn23)cc1
    / | 3637 | / | 27 | 45 | / | /
Cc1c(C(C)NC(=O)c2ccc3nc(Cc4ccccc4F)oc3c2)cnn1C (centres undefined)
    4 | 5332 | 3 | -1 | -14 | 3 | 2.1
Cc1cc(C)c(S(=O)(=O)NCC(c2ccco2)N2CCc3ccccc3C2)c(C)c1 (centres undefined)
    -5 | 6729 | 4 | 6 | -24 | 2 | -1.1
O=C(/C=C/c1ccco1)N1CCC(Cc2ccccc2)CC1
    5 | 3110 | -62 | -8 | -14 | 24 | 13
CCN(CCO)c1ccc(NC(=S)Nc2cccc(S(=O)(=O)N(C)C)c2)cc1
    -12 | 3578 | 1 | 3 | -10 | -11 | 2.6
O=C1CSC(=S)N1c1ccc(F)c(Cl)c1
    -5 | 2730 | -3 | -6 | -23 | -2 | 1.9
CS(=O)(=O)Nc1cccc(-c2cn3ccccc3n2)c1
    6 | 4609 | 4 | / | 10 | 14 | 4.7
CC(=O)NCc1ccc(C(=O)O)cc1
    7 | 4026 | 5 | 6 | 0 | 12 | 4.0
O=C(CC1SC(=NS(=O)(=O)c2ccccc2)N(c2ccccc2)C1=O)Nc1ccc(F)cc1 (centres undefined)
    15 | / | 0 | / | / | 4 | 4.7
Cc1ccc(C(=O)NCCCn2ccnc2)o1
    / | 3589 | 4 | 10 | 73* | / | 0.1
Cc1cccc(N2C(=O)CC(SC(=Nc3ccccc3)Nc3ccccc3)C2=O)c1 (centres undefined)
    -3 | 3390 | 15 | -2 | -14 | 0 | -11
NC(=O)/C(=C/c1ccco1)NC(=O)/C=C/c1ccccc1
    3 | 4359 | 4 | -4 | -27 | 9 | 3.8
COc1ccc(Cl)cc1NC(=O)CCN1C(=O)C2CC=CCC2C1=O (centres undefined)
    2 | 3851 | 2 | -7 | -8 | -3 | 3.4
Cc1cc(NC(=O)CCN2CCN(C)CC2)ccc1Br
    -3 | 4212 | 0 | -5 | -11 | 3 | 3.8
CCOc1ccc(-c2noc(-c3cccnc3)n2)cc1OC
    / | 3075 | / | -7 | -40 | / | /
COc1cc(NCCC(=O)c2cccs2)c(OC)cc1Cl
    10 | 4271 | 2 | 11 | -4 | 15 | 7.0
CCCn1c(SCC(=O)N2CCc3ccccc3C2)nc(O)cc1=O
    2 | 8760 | 7 | / | -13 | 3 | 2.3
Cc1ccc2occ(C=NNC(=O)[C@@H](N)Cc3ccccc3)c(=O)c2c1
    -3 | / | 3 | / | / | 4 | 2.5
Cn1cc(SCC(=O)NC2CCCC2)c2ccccc21
    11 | 5714 | 5 | -10 | -64 | 4 | 2.1
O=C(C1CCN(S(=O)(=O)c2cnc[nH]2)CC1)N1CCc2ccccc2C1
    / | 4799 | 4 | 2 | -8 | / | 0.6
CCC(=O)c1ccc(OCCN2CCOCC2)cc1
    4 | / | 4 | -1 | -23 | 7 | 2.8
COc1ccccc1C(=O)NCCCCNC(=O)c1ccccc1OC
    5 | 4354 | 8 | 4 | -1 | -5 | 4.5
CC1CN(c2nc(N(C)c3ccccc3)nc(N)c2[N+](=O)[O-])CC(C)O1 (centres undefined)
    / | 2933 | / | -2 | -21 | / | /
Cc1cccc(N2CCCn3c2nc2c3c(=O)n(CCN3CCOCC3)c(=O)n2C)c1
    9 | 5328 | -26 | 1 | -18 | 19 | 1.3
Cc1cccc(CNC(=O)c2ccc(NC(=O)C3=CSCCO3)cc2)c1
    -4 | 5162 | 5 | -5 | -34 | -3 | 3.2
CCn1c(N)c(C(=O)NCc2ccco2)sc1=S
    8 | 3410 | 8 | -11 | -14 | 5 | 1.5
Cc1ccccc1NC(=O)Cc1nc(COC(=O)c2ccc(Cl)c(S(N)(=O)=O)c2)cs1
    7 | ? | 0 | 6 | -6 | 2 | 0.4
O=C(COC(=O)CCC1CCCC1)Nc1ccc(Cl)cc1F
    -7 | 2268 | 0 | 4 | -14 | -7 | -3.8
CCC(C)N1CC(O)=C(c2nc3ccccc3[nH]2)C1=N (centres undefined)
    7 | 12700 | 2 | 1 | -52 | 10 | 3.3
COc1ccc(/C=N/NC(=O)c2cc(-c3cccnc3)nc3ccccc23)c(OC)c1
    / | 4186 | / | 0 | -27 | / | /
O=S(=O)(Nc1ccccc1Cl)c1cccc2nsnc12
    -9 | 3325 | 5 | 3 | -18 | 10 | 10
CCOC(=O)c1sc(=S)n(C)c1C
    11 | ? | 0 | 3 | -25 | 7 | 3.5
CCOC(=O)C1CCN(C(=O)CN(c2cc(Cl)ccc2OC)S(=O)(=O)c2ccccc2)CC1
    16 | 5686 | 3 | -2 | -10 | 5 | 4.7
CCCNS(=O)(=O)c1cccc2cccnc12
    / | 5702 | 9 | -2 | -12 | / | 1.5
O=[N+]([O-])c1cc2c(c(CSc3nnc(Nc4ccccc4)s3)c1)OCOC2
    0 | 2410 | -20 | -3 | -23 | -4 | -2.0
Cc1cc(N(C)C(=O)c2ccc3c(c2)S(=O)(=O)c2cc(Cl)ccc2C3=O)c(C(F)(F)F)o1
    -1 | 3990 | 2 | / | -17 | -4 | 6.3
COc1ccc(NC(=O)O/N=C/c2ccncc2)cc1
    / | 3412 | / | 1 | -17 | / | /
Nc1ccc(Oc2cccc(Oc3ccc(N)cc3)c2)cc1
    / | 2254 | / | -5 | 67* | / | /
O=C(CN1CCN(Cc2ccccc2)CC1)NC(=O)NC1CCCCC1
    / | 3916 | 8 | -14 | -5 | / | 0.0
COCc1[nH][nH]c(=O)c1C=NCC(=O)OC
    2 | 2179 | -2 | -1 | -36 | 4 | -0.8
Oc1c(N=NC(=S)Nc2ccccc2F)c2ccccc2n1Cc1ccccc1Cl
    4 | 4357 | 2 | / | -8 | -9 | 3.8
O=C(O)c1cccc(NC(=S)N/N=C/c2ccccc2OCc2cccc(Br)c2)c1
    / | 2453 | / | 5 | 0 | / | /
COc1ccc(C(=O)[C@H]2[C@H]3C(=O)N(c4ccc(OC(C)=O)cc4)C(=O)[C@H]3C3C=CC=NN32)cc1 (some centres undefined)
    2 | 4593 | 0 | 0 | -17 | -2 | 1.0
CC/C(C)=N/Nc1nc2c(c(=O)[nH]c(=O)n2C)n1Cc1ccccc1
    / | 3703 | / | -5 | -27 | / | /
CCOC(=O)c1cc(CC)sc1NC(=O)c1cc([N+](=O)[O-])ccc1N1CCOCC1
    2 | 8418 | -16 | 17 | 1 | 0 | 1.1
C/C(Cl)=C/Cc1c(C)[nH]c2ccc(C)cc2c1=O
    -2 | 9724 | -5 | 2 | -30 | -5 | 2.1
Cc1cc(S(=O)(=O)NCc2ccccc2)ccc1OCC(=O)NCc1cccnc1
    -2 | 2994 | 13 | 13 | -32 | 5 | 2.8
O=C(CSc1nnc(-c2ccncc2)n1-c1ccccc1)NCC1CCCO1 (centres undefined)
    1 | 3842 | 3 | / | -10 | 0 | 0.5
CC(=NNC(=O)c1cc(C)[nH]n1)c1ccncc1
    3 | / | 4 | / | / | 3 | 2.0
COc1ccc(CCN(Cc2cc3cccc(C)c3[nH]c2=O)C(=O)NC2CCCCC2)cc1OC
    4 | 23128* | -9 | -7 | -8 | 5 | 3.7
O=C(CC1C(=O)NC2CCCCC2N1C(=O)c1ccc(F)cc1)Nc1ccccc1 (centres undefined)
    2 | 9710 | 0 | 2 | -44 | -5 | 0.6

Three neighbouring entries out of the list so far, for reference:
Under each structure – Mtb hypoxia inh growth | Autofluor counter | ugtP null kill | BJeLR viability | PrP UTR inh | Mtb hypoxia inh | Sa RN4220 lethal
CC(=NNC(=O)c1cc(C)[nH]n1)c1ccncc1
    3 | / | 4 | / | / | 3 | 2.0
COc1ccc(CCN(Cc2cc3cccc(C)c3[nH]c2=O)C(=O)NC2CCCCC2)cc1OC
    4 | 23128* | -9 | -7 | -8 | 5 | 3.7
O=C(CC1C(=O)NC2CCCCC2N1C(=O)c1ccc(F)cc1)Nc1ccccc1 (centres undefined)
    2 | 9710 | 0 | 2 | -44 | -5 | 0.6

Continued:
Under each structure – Mtb hypoxia inh growth | Autofluor counter | ugtP null kill | BJeLR viability | PrP UTR inh | Mtb hypoxia inh | Sa RN4220 lethal
NC(=O)CSc1n[nH]c(-c2ccco2)n1
    5 | 4282 | 2 | 2 | -19 | 8 | 3.2
COc1cccc(C(=O)OC(C)C(=O)NCC2CCCCC2)c1 (centres undefined)
    -3 | 2828 | 2 | / | -1 | -1 | 1.6
COc1ccc(CC(NC(C)=O)C(=O)NC2CCN(C(=O)Nc3ccccc3C)CC2)cc1OC (centres undefined)
    / | 3540 | / | 3 | -20 | / | /
CCOC(=O)c1sc(NC(=O)c2ccc(C)s2)cc1C
    15 | 4901 | 3 | 2 | -157 | 18 | 6.4
COc1ccc(N(CC(=O)NN=Cc2ccc(OC3CSC3)cc2)S(=O)(=O)c2ccccc2)cc1
    -1 | / | 7 | / | / | 5 | 0.7
Cc1ccc(OCCn2c(=O)oc3ccc(C)cc32)cc1
    1 | 3172 | -14 | -14 | -10 | -3 | 1.9
CCCCCN(C(=O)NC(=O)Nc1ccccc1C)S(=O)(=O)c1ccccc1
    3 | 2159 | -3 | 14 | -14 | 5 | 4.6
O=C(CNS(=O)(=O)c1ccccc1F)OCC(=O)c1c[nH]c2ccccc12
    -5 | 2968 | -2 | / | -26 | -12 | 0.3
Nc1nc(NCCCN2CCOCC2)nc(Nc2ccc(F)cc2)c1[N+](=O)[O-]
    3 | 2130 | -1 | 7 | 4 | 5 | 2.8
O=C(CCNC(=O)c1ccc(Br)cc1)Nc1ccc(S(=O)(=O)N2CCOCC2)cc1
    3 | 7768 | 2 | / | -14 | 6 | 6.7
O=[N+]([O-])c1ccc(S(=O)(=O)NCC2CCCO2)cc1 (centres undefined)
    -7 | 9311 | 9 | -1 | -18 | 2 | 20
CC1CCN(c2ccc(S(=O)(=O)N3CCC(C)CC3)cc2N)CC1
    3 | 5147 | -4 | 12 | -12 | 1 | 1.1
CC(=O)Nc1ccc(NC(=O)CSc2nnc(-c3ccco3)n2Cc2ccco2)cc1
    12 | 11417 | -4 | 2 | -26 | 19 | 1.9
COc1ccc(N2CCN(C(=O)c3cc(=O)c4ccc(C)cc4o3)CC2)cc1
    11 | 3861 | 17 | 0 | -23 | 11 | 2.7
Nc1nonc1N1CCCCC1
    5 | ? | -5 | 6 | -22 | 9 | 2.9
CO[C@@]1(NC(=O)Cc2cccs2)C(=O)N2C(C(=O)O)=C(COC(N)=O)CS[C@@H]21
    / | 4319 | / | 5 | -11 | / | /
COc1cc(/C=C(\C#N)C(=O)NCc2cccs2)ccc1O
    4 | 2494 | 4 | -6 | -3 | 0 | 6.7
O=C(Nc1cc(Cl)cc(Cl)c1)C1CCC(=O)N1Cc1ccccc1Cl (centres undefined)
    11 | 21909* | -24 | 3 | -28 | 15 | 11
